Assay outcomes as filed in PubChem.
PrP UTR inh: suppresses PrP 5' UTR mRNA reporter expression; cell-based PrP 5' UTR mRNA reporter, plate reader; inhibition, % (concentration not given with the values); actives 0.35% (n = 340,000);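 active = every replicate at 50% or more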;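 also: 0 = median of the neutral control wells; tested in H4 reporter cells; numbers are from one replicate; inactives centre near -14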
Mtb hypoxia rep: reduces hypoxia-regulated biosensor signal in M. tuberculosis | M. tuberculosis hypoxia-regulated fluorescent reporter, fluorescence | fluorescence inhibition, % (concentration not given with the values) | actives 0.1% (n = 300,000) | AID 1159583;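 active = 35 to 45% if threefold the growth effect, above 45% if 1.5-fold the growth effect; inactive = the rest, general growth blockers included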;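 also: wells of about 50 µL received 100 nL stock; 0% = vehicle wells and 100% = reference inhibitor wells; whole bacteria with a GFP reporter of the hypoxia response; strong numbers were not always called active; many hits fall short of the cut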
BJeLR lethal: BJeLR cell viability loss; actives 0.17% (n = 300,000); inhibition, % (test concentration not listed); BJeLR (HRASV12) viability, CellTiter-Glo ATP luminescence, 48 h; reference of the scale not given here;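 active = replicate mean above 50%; inconclusive = above 50% but judged a plate artefact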;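 also: 50 nL library stock added to about 25 µL; numbers are from one replicate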
Bead autofluor: compound fluorescence in toxin protease inhibitor counterscreen. actives 3.1% (n = 360,000). compound autofluorescence counterscreen, microsphere flow cytometry; hits give high values. fluorescence intensity (test concentration not listed);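 active = at least 3 SD above the mean of all compounds, about 16000 in these data; inconclusive = too few beads counted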;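 also: 100 nL of 1 mM stock went into each well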
Sa ugtP lethal: kills S. aureus RN4220 lacking UgtP; S. aureus RN4220 ugtP deletion, OD600 growth, 16 h; some inactives read as strong as hits; growth inhibition, % (test concentration not listed); actives 0.54% (n = 330,000);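 active = z-score under -3 and OD600 up to 0.15 on both plates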;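 also: plate controls were untreated wells for no effect and antibiotic for full effect; wells of about 80 µL received 100 nL stock; the first replicate is given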
Sa RN4220 lethal: kills Staphylococcus aureus RN4220 | actives 0.33% (n = 330,000) | AID 1259311 | S. aureus RN4220 growth, OD600, 16 h | inhibition, % (test concentration not listed);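 active = z-score of -3 or lower and OD600 up to 0.18 on both plates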;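 also: plate controls were untreated cells for no effect and reference antibiotic for full effect; stock transfer was 100 nL into about 80 µL; one replicate is shown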
Mtb hypoxia rep growth: also measured in Mtb hypoxia rep; calls as there; growth inhibition, %; measured here: M. tuberculosis growth (absorbance);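 0% = vehicle and 100% = reference antibiotic; read after six days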
* marks the source's active call; other numbers are inactive results; ? = inconclusive; . = not tested or not shown; & = joins results of further samples. Rows are unselected (roughly 3.9% active in at least one column).

SMILES	PrP UTR inh	Mtb hypoxia rep	Mtb hypoxia rep growth	BJeLR lethal	Bead autofluor	Sa ugtP lethal	Sa RN4220 lethal
CC(/C=C/c1ccccc1)=NNC(=O)Cn1nc(C)cc1C	.	-2.2	7.0	.	.	24.7	-2.6
CC(C(=O)O)C1C[C@@]1(C)C(NC(=O)OCc1ccccc1)c1ccccc1 (some centres not stated)	.	13.2	10.9	.	.	5.2	11.2
CC(NC(=S)NCCc1ccccc1)C(c1cccs1)N1CCN(Cc2ccccc2)CC1 (configuration not stated)	-26.0	-6.2	5.9	-1.7	5821	3.3	-0.6
O=C(O)c1nn(CC(=O)N(C2CCCCC2)C2CCCCC2)c(=O)c2ccccc12	-0.1	-7.9	1.0	1.8	3143	-9.5	-2.6
COc1ccccc1C(=O)NCCC(=O)N1CCN(C(C)=O)CC1	-4.0	-1.1	-0.5	-2.2	?	2.1	1.3
O=C(Nc1ccc(C(=O)N2CCN(c3ccc(Cl)cc3)CC2)cc1)C1=CSCCO1	-6.6	-9.0	-3.2	-0.8	5674	-8.4	-4.3
Cc1ccc(-c2nc3ccccc3c(=O)n2NC(=S)N(C)C)cc1	-0.1	4.5	-0.6	-9.2	2520	-1.2	3.5
Cn1c(-c2ccsc2)c(-c2cccs2)c2cc(-c3ccc4cc[nH]c4c3)ccc21	-6.8	-2.9	0.0	.	3754	-25.2	3.4
Oc1ccccc1-c1nc(/C=C/c2ccccc2)nn1-c1ccccc1	-40.2	2.7	-0.3	-6.2	2042	56.2	-10.4
CCOC(=O)N1CCN(C(=O)c2ccc3nc(N4CCCCC4)sc3c2)CC1	-20.8	1.5	9.5	9.7	2420	5.0	3.6
CNC(=S)NN=Cc1ccccc1OCC(=O)O	.	6.5	5.9	.	.	-3.8	1.4
COc1ccc(CNC(=O)COC(=O)CN2C(=O)COc3ccccc32)cc1	0.5	0.4	-1.0	1.4	5137	3.3	-0.2
Nc1ccc2c(c1)C(O)c1ccc(Cl)cc1-2 (configuration not stated)	-0.5	3.2	-0.3	.	2974	-9.3	0.5
CCN1C(=O)[C@H]2[C@@H](c3ccc(-c4ccc(Cl)c(Cl)c4)c(OC)c3)N[C@@](C)(C(=O)OC)[C@H]2C1=O	-17.9	.	.	10.9	4040	.	.
CCOc1cc2c3c(c1)C1(C(=O)N3C(C)(C)CC2C)C(C#N)=C(N)N2C(=C1C#N)Nc1ccccc12 (configuration not stated)	-6.1	4.8	8.4	-8.2	2310	-7.6	17.2
O=C(NC1CCS(=O)(=O)C1)c1cccc(S(=O)(=O)N2CCCCCC2)c1 (configuration not stated)	-3.9	7.0	2.0	9.8	4036	3.0	4.4
CN(CCOc1ccccc1)C(=O)CCc1c[nH]c2ccccc12	-13.4	2.9	-3.0	-7.2	3555	-4.3	0.5
O=C(CC(O)(C(F)(F)F)C(F)(F)F)Nc1ccc(Cl)c(Cl)c1	-7.5	.	.	.	.	100.3*	100.3*
C/C=C/C=C/C(=O)N1CC[C@]23c4ccccc4N[C@H]4N(C)c5cccc6c5[C@]42CCN([C@H]6C2OC2(C)C)[C@H]13 (some centres not stated)	-14.5	.	.	-2.8	5718	-0.1	-1.2
O=C(CN(Cc1cccs1)C(=O)CNS(=O)(=O)c1ccc(F)cc1)NCc1ccco1	-11.0	.	.	8.7	3663	-0.2	5.2
COc1cccc(NC(=O)CSc2nnc(-c3cccc(OC(C)C)c3)n2N)c1	-22.7	3.5	4.8	-16.9	3392	1.3	-0.2
CCCCC(=O)Nc1ccc(C(=O)NCCc2ccccc2)cc1	-31.2	-2.5	0.1	-9.0	6283	3.8	-4.4
COc1ccc(OC)c(NC(=O)c2cccnc2)c1	-43.2	-1.4	8.0	-1.4	2985	3.1	0.6
Cc1ccccc1C(=O)Nc1nnc(CC(=O)N/N=C/c2cn(Cc3ccccc3)c3ccccc23)s1	-15.1	.	.	0.1	4416	.	.
CN1CCN(c2ccccc2NS(=O)(=O)c2ccc3c(c2)CCN3C(=O)C2CCC2)CC1	.	5.5	9.3	-10.9	.	5.5	3.2
Next entries:
SMILES	PrP UTR inh	Mtb hypoxia rep	Mtb hypoxia rep growth	BJeLR lethal	Bead autofluor	Sa ugtP lethal	Sa RN4220 lethal
Cc1ccc(CNC(=O)CN2C(=O)C3(OCCCO3)c3ccccc32)cc1	-15.0	10.0	17.9	22.7	11499	-0.1	3.5
Cc1ccccc1CCNC(=O)C1CCCN(c2cnccn2)C1 (configuration not stated)	-13.4	8.1	4.3	-2.7	6217	3.6	2.5
O=C(CO/N=C/c1ccccc1)Nc1c(F)c(F)c(F)c(F)c1F	-21.8	.	.	0.7	2084	.	.
O=C(c1cc2ccccc2oc1=O)N(Cc1ccccc1)CC1CCCO1 (configuration not stated)	-23.3	1.9	6.9	-7.2	3766	-9.2	-2.1
CC12CC(O)C3C(CCC4=CC(=O)CCC43C)C1CCC2=O (configuration not stated)	-28.0	22.4	12.1	.	4100	-0.9	1.0
Cn1cc2cc(NC(N)=S)ccc2n1	-14.9	7.2	15.1	-6.9	4264	9.2	2.9
CCOC(=O)c1cnc2c(C)c(Cl)ccc2c1N1CCN(CC)CC1	-16.9	15.3	3.7	5.4	.	9.6	-0.3
Nc1nc(CN2CCN(c3ccccc3)CC2)nc(N2CCCc3ccccc32)n1	-8.5	-4.6	8.1	-12.2	9609	-7.7	0.6
O=C(NCCCn1ccnc1)Nc1ccc2c(c1)OCO2	.	-1.0	8.5	-6.7	4071	10.5	0.9
C[C@]12C=CC(=O)C=C1C=C[C@@H]1C2CC[C@]2(C)C(=O)CCC12 (some centres not stated)	-11.3	-11.6	5.1	0.4	3519	6.8	2.3
S=C(NNc1ccnc2cc(Cl)ccc12)Nc1ccccc1Cl	-27.5	-1.1	1.9	-7.0	2404	-4.7	-2.9
CC(=O)c1c(C)[nH]c(C(=O)CSc2nc3ccccc3n2C)c1C	-14.8	-2.3	1.8	-8.3	3024	-20.7	-2.2
CCN(CC)CCCn1c(C)cc2c(c1=O)C(c1ccccc1)C(C#N)=C(N)O2 (configuration not stated)	-11.4	1.8	2.8	0.6	2416	0.6	-13.2
CN(CC(=O)NCc1ccccc1F)S(=O)(=O)c1ccc(Cl)cc1	-1.6	10.5	-2.8	1.1	3110	1.9	3.4
Cc1nnsc1S(=O)(=O)c1ccccc1	.	0.5	-2.0	13.0	3956	0.3	4.4
COc1ccc(COC(=O)c2cccc(S(=O)(=O)N3CCCC3)c2)cc1F	-4.2	10.3	6.8	-14.1	4022	18.3	1.5
COc1ccccc1N=Nc1c(O)[nH]c(=S)[nH]c1=O	-13.8	10.6	9.0	0.3	3309	24.1	11.7
CCN1CCN(c2ccc(S(=O)(=O)N3CCCCC3)cc2NC(=O)C(C)Oc2ccc(F)cc2)CC1 (configuration not stated)	-9.3	3.8	7.4	2.2	5850	3.5	7.6
CC(C)OCC(O)CS(=O)(=O)Cc1ccccc1 (configuration not stated)	-12.7	-3.0	-3.5	-2.7	5974	1.6	1.1
O=C(CCn1nnc(-c2cccs2)n1)NCc1ccccc1Cl	-23.7	3.2	3.2	0.6	6436	2.5	0.0
CC(=O)c1c(C)oc2ccc(O)c(CN3CCOCC3)c12	-24.0	4.1	1.3	-13.8	4940	2.2	2.7
COc1cc(C(=O)N(C)CCOc2ccc(C)cc2)ccc1OC1CCN(C(C)=O)CC1	-30.7	-16.3	-2.5	-12.8	4006	8.1	3.9
Cc1ccc(CNC(=O)C2CCC(=O)N(C3CCCC3)C2)c(F)c1F (configuration not stated)	-9.0	6.9	-0.8	-0.7	5525	7.3	0.7
C=CCn1c(SCC(=O)/C(C#N)=C(\C)N)nc2sc(CC)cc2c1=O	-1.1&-14.3	8.2&9.0	3.4&7.6	2.0	3527&9024	-11.9&-15.5	-3.4&1.1
COc1nc(-c2ccccc2)ccc1-c1noc(COc2ccccc2)n1	-31.6	4.5	6.5	-2.4	3883	51.7	2.7
Remaining list, next part
SMILES	PrP UTR inh	Mtb hypoxia rep	Mtb hypoxia rep growth	BJeLR lethal	Bead autofluor	Sa ugtP lethal	Sa RN4220 lethal
CN1C(=O)/C(=C\c2ccc(N3CCCCCC3)cc2)C(=O)NC1=S	-1.6	1.9	4.5	2.3	7611	-2.8	0.6
CN(CC(=O)Nc1ccc(F)c(F)c1)S(=O)(=O)c1cccc2nsnc12	-6.2	-79.9	-19.8	0.3	9159	-1.2	0.7
O=C(/C=C/c1ccccc1[N+](=O)[O-])N1CCN(C(=O)c2ccco2)CC1	-21.8	2.8	3.4	1.7	4213	3.3	9.9
CCCn1c(NCc2ccccc2NS(=O)(=O)c2ccc(C)cc2)nc2ccccc21	-13.2	10.7	4.0	-9.0	2096	-6.4	-6.5
O=C(NCc1ccco1)c1ccc(N2CCCC2=O)cc1	-20.1	.	.	-3.9	3082	1.8	1.5
O=C(CCl)c1ccc(Cc2ncc(C(F)(F)F)cc2Cl)s1	-50.3	.	.	9.9	2417	19.9	17.1
COc1cc(C(C)=O)ccc1OC(=O)CN1C(=O)c2ccccc2C1=O	4.5	-10.3	-6.8	-4.2	3037	3.0	3.3
COc1ccc(-c2nc(SCC(=O)Nc3cc(C)on3)n[nH]2)cc1	-23.9	.	.	-1.2	2819	1.5	1.5
C/C(=N\NC(=O)COc1ccc(C)cc1[N+](=O)[O-])c1ccc2c(c1)OCCO2	-21.6	.	.	3.8	5485	.	.
CCN=C1SC(C(=O)Nc2cccc(Cl)c2)CC(=O)N1CC (configuration not stated)	-40.2	-0.7	7.7	-7.2	4068	-0.9	3.6
CCOC(=O)N1CCN(C(=O)CN(C2CCCCC2)S(C)(=O)=O)CC1	-25.6	-3.3	0.8	-15.3	3992	0.7	0.4
C=CCn1c(SCc2nc3ccccc3[nH]2)nnc1-c1ccc(OC)cc1	-14.9	2.7	5.5	-15.9	20347*	5.7	2.8
O=C(COC(=O)c1c2c(nc3ccccc13)CCCCC2)NCc1ccc2c(c1)OCO2	-4.8	.	.	3.1	3015	.	.
O=C(c1ccc(NS(=O)(=O)c2cccc(F)c2)cc1)N1CCCCC1	-6.1	7.5	2.4	-1.3	5213	-1.3	7.8
CC(C)Cc1nnc(NC(=O)CC(C)c2ccccc2)s1 (configuration not stated)	-24.8	22.9	8.0	-8.5	.	9.0	0.6
COc1cc(CC(NC(C)=O)C(=O)NC2CCN(c3nc(C)cc(C)c3C#N)CC2)cc(OC)c1 (configuration not stated)	-0.3	.	.	-9.2	3661	11.9	12.7
CC1CN(C(=O)C(C)N2CCN(c3cccc(Cl)c3)CC2)CC(C)O1 (configuration not stated)	-8.6	13.4	-4.9	6.2	3536	-2.4	0.3
Cc1ccc2c(c1)C1CN(C)CCC1N2C(=O)c1cccs1 (configuration not stated)	-19.1	7.8	1.5	4.6	4464	1.7	3.7
COC(=O)c1sccc1NC(=S)N1CCN(c2cc(C)ccc2C)CC1	-5.1	-3.7	-6.7	3.8	6934	29.0	-1.6
CC(C)N(c1ccccc1)c1ccc(NC(=O)C2CCCO2)cc1 (configuration not stated)	-14.9	8.3	9.2	3.0	4439	-5.4	4.4
COc1ccc(OC)c(S(=O)(=O)N2CCC(C(=O)Nc3ccc(C)c(C)c3)CC2)c1	-5.5	14.1	7.8	-12.4	3749	-2.4	0.5
Cc1ccccc1/C=C/c1cc[n+](C)cc1	-21.7	11.5	1.5	2.8	3881	0.4	4.5
Cc1cc(NC(=O)COC(=O)c2cccc(O)c2)no1	-6.5	7.7	4.6	-9.8	3531	-2.9	3.3
Cc1cccc(CNc2ncnc3[nH]ncc23)c1	-26.7	13.4	6.1	.	3751	2.7	8.1

Complete entries, quoted from the list. Values in the order: PrP UTR inh	Mtb hypoxia rep	Mtb hypoxia rep growth	BJeLR lethal	Bead autofluor	Sa ugtP lethal	Sa RN4220 lethal
Entry for CC1CN(C(=O)C(C)N2CCN(c3cccc(Cl)c3)CC2)CC(C)O1 (configuration not stated) = -8.6	13.4	-4.9	6.2	3536	-2.4	0.3
Entry for O=C(/C=C/c1ccccc1[N+](=O)[O-])N1CCN(C(=O)c2ccco2)CC1 = -21.8	2.8	3.4	1.7	4213	3.3	9.9
Entry for O=C(c1ccc(NS(=O)(=O)c2cccc(F)c2)cc1)N1CCCCC1 = -6.1	7.5	2.4	-1.3	5213	-1.3	7.8
Entry for C/C(=N\NC(=O)COc1ccc(C)cc1[N+](=O)[O-])c1ccc2c(c1)OCCO2 = -21.6	.	.	3.8	5485	.	.
Entry for CN1C(=O)/C(=C\c2ccc(N3CCCCCC3)cc2)C(=O)NC1=S = -1.6	1.9	4.5	2.3	7611	-2.8	0.6
